HNF4A DNA FP – change in binding of human HNF4 alpha to DNA | P41235 | HNF4a-FITC DNA binding, fluorescence polarization, 1 h | activity change, % at 10 µM | 360,000 tested, 0.3% active | AID 1224865; in the data active means activity change above about 30%, passing the limit was not always enough;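 further: controls were the assay level and a saturating level of protein; the project sought stronger binding though the title names inhibitors; some compounds called inactive have numbers as strong as hits; positive values seem to mean higher polarization but the record does not say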
Target sequence (P41235 whole entry, looked up): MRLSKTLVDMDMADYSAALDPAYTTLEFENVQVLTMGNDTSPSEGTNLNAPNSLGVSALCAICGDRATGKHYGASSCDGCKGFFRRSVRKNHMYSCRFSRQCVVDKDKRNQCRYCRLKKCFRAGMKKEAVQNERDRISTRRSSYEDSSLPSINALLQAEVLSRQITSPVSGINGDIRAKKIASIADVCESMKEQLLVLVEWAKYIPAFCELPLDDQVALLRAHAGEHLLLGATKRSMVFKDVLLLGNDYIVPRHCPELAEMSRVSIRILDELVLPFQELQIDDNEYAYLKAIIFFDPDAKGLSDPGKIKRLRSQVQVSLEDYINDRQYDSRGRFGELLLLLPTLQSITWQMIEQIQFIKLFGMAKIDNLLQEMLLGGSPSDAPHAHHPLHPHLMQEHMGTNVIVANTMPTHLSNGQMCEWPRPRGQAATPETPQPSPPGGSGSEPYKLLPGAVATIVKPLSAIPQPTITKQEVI
RanGTP-Imp inh – inhibitors of RanGTP-importin-beta interaction, primary screen, biochemical, FRET, CFP-Ran, YFP-importin-beta, homogeneous; 300,000 tested, 1.1% active; cell-free CFP-Ran/YFP-importin-beta FRET ratio; inhibition, % (concentration not given with the values);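 active means most replicates above 15%; inconclusive means exactly half above 15%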;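 further: 0% = DMSO wells and 100% = Ran loaded with GDP instead of GTP; wells of about 40 µL received 100 nL stock; the first replicate is given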
Ecoli growth – inhibitors of Escherichia coli growth; OD600, 23 h; hits give low values; OD600 absorbance (test concentration not listed); 330,000 tested, 0.21% active;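 active means OD600 absorbance below the run mean of sample wells minus 3.6 SD, in any replicate, cut at about 0.56 in these data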;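 further: stock transfer was 300 nL into about 60 µL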
UCH37 inh – inhibitors of human deubiquitinating enzyme UCH37. AID 588478. Q9Y5K5. 330,000 tested, 0.33% active. purified proteasome/UCH37, Ub-AMC cleavage fluorescence. inhibition, % (test concentration not listed);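 active means mean of two replicates above 20%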;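 further: 0% = compound-free wells with enzyme and 100% = wells lacking proteasome; stock transfer was 100 nL into about 20 µL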
Target sequence (Q9Y5K5 whole entry, looked up): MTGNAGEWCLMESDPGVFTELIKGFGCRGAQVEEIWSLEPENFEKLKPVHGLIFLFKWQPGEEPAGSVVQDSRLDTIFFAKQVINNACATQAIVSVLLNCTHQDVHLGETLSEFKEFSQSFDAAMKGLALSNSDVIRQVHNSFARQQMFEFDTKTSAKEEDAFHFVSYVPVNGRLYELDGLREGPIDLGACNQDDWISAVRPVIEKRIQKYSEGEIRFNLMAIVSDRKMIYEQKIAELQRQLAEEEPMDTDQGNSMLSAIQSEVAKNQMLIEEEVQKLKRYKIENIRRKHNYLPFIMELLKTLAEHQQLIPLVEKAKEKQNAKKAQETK
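Material: Human UCH37 enzyme supplied as purified proteasome complex | Schedule: 30 min compound-proteasome preincubation then 25 min substrate reaction, room temperature | Detection: AMC fluorescence from Ub-AMC cleavage, excitation 355 nm, emission 460 nm | Benchmarks: Wells without proteasome as full block, compound-free enzyme plus substrate as uninhibited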
FGF22 binding – shifts melting point of recombinant human FGF22. 340,000 tested, 1.5% active. recombinant FGF22 thermal shift, SYPRO orange fluorescence; percent of sucrose octasulfate shift, DMSO zero. calls only at 9.99 µM;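 active means melting point raised past a set limit in the mean and every replicate; inconclusive means no clear call; three in four hits are not shown here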
Target sequence (Q9HCT0 whole entry, looked up): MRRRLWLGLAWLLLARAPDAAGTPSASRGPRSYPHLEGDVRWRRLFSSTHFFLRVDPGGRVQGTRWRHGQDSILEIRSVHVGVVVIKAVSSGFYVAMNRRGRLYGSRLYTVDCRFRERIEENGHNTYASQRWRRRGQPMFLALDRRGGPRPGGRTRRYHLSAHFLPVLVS
Vif A3G – HIV-1 Vif–A3G interaction blockers – biochemical, TR-FRET, GST-Vif 1-94, biotin-A3G peptide, dose response retest, primary screen (AID 1117319); inhibition, %; hits with a dose series show IC50 in µM; 260,000 tested, 0.57% active; TR-FRET GST-Vif / biotin-A3G peptide binding; higher % means a stronger effect; test concentration not given here; strong numbers were not always called active;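 active means above the screen mean plus three standard deviations and confirmed in dose response; inconclusive means results disagree or hit not tested in dose response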;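 further: Vif residues 1-94 fused to GST binding biotinylated APOBEC3G peptide 110-148; 0% = full assay without inhibitor and 100% = GST in place of GST-Vif; retest series ran down from 100 µM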
MLL AF4-AF9 inh – blocks AF4 peptide binding to human AF9; P42568; AlphaScreen, biotin-AF4 peptide binding to FLAG-AF9; inhibition, % at 10 µM; 350,000 tested, 0.47% active; AID 651704;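 active means every replicate reaching a set inhibition limit, whatever the replicate mean, cut at about 25% in these data; inconclusive means mean inhibition reaches that limit but some replicates miss it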;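 further: 0% = plate neutral control median and 100% = total signal loss; the record names both 10 and 1 µM as test concentration; the first replicate is given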
* = called active by the depositor; i = inactive; u = inconclusive; x = no result given; & = joins results of further samples.

HNF4A DNA FP,RanGTP-Imp inh,Ecoli growth,UCH37 inh,FGF22 binding,Vif A3G,MLL AF4-AF9 inh,compound
2.8,-3.2,0.67,-84,i,18%,2.3,CCCn1nc2cc(C(=O)NCc3ccc(OC)cc3)ccc2c1OCC
1.2,x,x,x,i,x,-4.3,O=C(NCc1ccc(F)cc1)c1cc(C2CCCN(C(=O)c3ccccn3)C2)on1 (stereo not drawn)
0.5,4.2,0.69,-1.8,x,4%,x,CCN1CCN(c2ccc(NC(=O)COc3ccccc3Cl)cc2)CC1
2.2,-0.4,0.7,2.3,x,1%,x,CCOCCc1nnc(NC(=O)C(CC)c2ccccc2)s1 (stereo not drawn)
-0.9,3.7,0.72,-95,i,-8%,-1.7,Nc1cc(Cl)ccc1C(=O)OCC(=O)NC1CCCCC1
-2.2,x,x,x,i,x,3.3,CCOC(=O)C1CCCN(C(=O)c2cccc(S(=O)(=O)NCc3ccccc3)c2)C1 (stereo not drawn)
0.9,-2.3,0.72,-4.2,i,4%,8.3,CCOC(=O)CSc1ccc2nnc(-c3ccncc3)n2n1
-0.9,0.6,0.74,0.7,x,-2%,x,Cc1csc(NC(=O)CCC(=O)N(CC(=O)NC2CCCC2)Cc2ccco2)n1
8.2,0.9,0.73,-0.5,i,12%,-2.6,CCn1cc(CN2CCC(n3nccc3NC(=O)CCOc3ccccc3)CC2)cn1
3.3,1.8,0.67,0.2,i,2%,2.8,COc1ccc(CCNC(=O)C(=O)NCC2OCCN2C(=O)c2ccc(Cl)cc2)cc1 (stereo not drawn)
-8.5,u,x,x,i,-2%,0.1,O=C1CC(N2CCC(c3nc4ccccc4[nH]3)CC2)C(=O)N1c1ccccc1F (stereo not drawn)
0.5,x,0.67,2.3,i,-4%,4.1,COc1ccc(S(=O)(=O)N2CCOCC2)cc1NC(=O)c1cc(C)oc1C
-0.1,0.6,0.64,2.0,i,x,-4.7,Cc1cc(Cl)ccc1OCC(=O)NNC(=O)c1ccco1
-25,-14,0.73,2.8,x,13%,x,COc1cc(C2C(C#N)=C(N)OC3=C2C(=O)CC(C)(C)C3)c([N+](=O)[O-])cc1OC (stereo not drawn)
-10,0.0,0.72,-0.7,i,-6%,-2.0,FC(F)(F)c1ccccc1NC1=NCCC1
0.7,3.4,0.75,6.3,x,x,x,CC(C)(O)[C@@H]1[C@@H]2C[C@@]3(CC[C@]4(C)C(CCC5[C@@]6(C)CC[C@H](O)C(C)(C)C6CC[C@]54C)[C@@H]13)C(=O)O2 (stereo partly drawn)
0.3,-2.4,0.7,-2.2,i,-9%,0.2,CC1(C)C2CCC(C2)C1(C)NC(=O)C[N+](C)(C)C (stereo not drawn)
5.4,0.5,0.72,6.2,x,27%,0.0,CNCCCOc1ccc(C)cc1OC
-1.4,2.7,0.72,3.8,i,-2%,0.3,Cc1cccc2sc(NC(=O)CN3C(=O)NC4(CCCC4)C3=O)nc12
-7.6,x,0.66,x,i,x,-0.1,Cc1ccc(S(=O)(=O)N2C(c3cccc(Cl)c3)CC=C(C(=O)O)C2c2cccc(Cl)c2)cc1 (stereo not drawn)
1.8,1.0,0.69,3.5,i,3%&-5%,1.7,COc1cc(C2C(C#N)=C(N)OC3=C2C(=O)CCC3)ccc1OC(=O)N1CCOCC1 (stereo not drawn)
-1.7,-1.1,0.7,0.6,i,x,-4.2,COc1ccccc1CCNC(=O)/C(=C/c1cccnc1)NC(=O)c1ccccc1
-1.4,1.0,0.65,4.2,i,x,-2.5,Cc1ccc(C(=O)N2CCN(S(=O)(=O)N3CCCCCC3)CC2)cc1
1.8,4.9,0.68,0.1,x,18%,x,CC(=O)c1ccc(OCc2cc(=O)n3ccsc3n2)cc1
4.4,-3.4,0.69,5.9,i,-7%,-2.2,Cc1cccnc1NC(=O)CCCNC(=O)c1ccc(Cl)cc1
-3.4,-2.3,0.65,-1.1,x,2%,x,CC(=O)c1cccc(NC(=O)NC(C)c2ccncc2)c1 (stereo not drawn)
-0.8,1.1,0.74,4.1,i,x,-2.2,O=C(/C=C/c1ccc(Cl)cc1Cl)NC(=S)Nc1ccc(CN2CCOCC2)cc1
-0.7,1.2,0.72,-0.4,x,0%,x,CC1(C)Cc2cccc(OCC(=O)N3CCN(S(=O)(=O)c4ccccc4)CC3)c2O1
15,9.2,0.72,-33,i,21%,0.6,C=C(C)CSc1nc2sc3c(c2c(=O)n1C1CCCCC1)CCN(C)C3
2.3,1.6,0.72,5.2,x,0%,x,Cc1cc(C(=O)Nc2sc(C)c(C)c2C#N)no1
-2.6,-1.3,0.66,1.2,i,x,-0.6,Cc1ccc(S(=O)(=O)N2CCN(C(=O)N3CCOCC3)CC2)cc1C
4.1,1.4,0.72,0.2,x,13%,x,Cc1cccc(NC(=S)NC2CC3CCCC(C2)N3CC(C)C)c1C (stereo not drawn)
-0.1,x,x,x,i,x,-2.1,COCc1cc(=O)n2[nH]c(C)c(-c3ccc(Cl)cc3)c2n1
-0.6,x,0.78,2.8,i,5%,-1.2,O=C(O)c1c2c(nc3ccc(S(=O)(=O)N4CCC(C(=O)N5CCCCC5)CC4)cc13)CCCC2
2.4,0.2,0.68,5.0,i,-2%,-0.9,CC1CCCCN1CC(=O)c1c[nH]c2ccccc12 (stereo not drawn)
3.3,x,x,x,i,x,1.6,O=C1NC[C@H](Cc2ccc(O)cc2)N(C[C@H]2CCCN2C[C@H](Cc2ccccc2)N2C[C@H](Cc3ccccc3)N(CCc3ccccc3)C(=O)C2=O)C1=O
2.7,-0.7,0.66,3.2,i,-2%,0.7,O=C(c1ccco1)N1CCN(Cc2ccc(Br)cc2)CC1
3.9,6.1,0.7,0.2,x,1%,x,Cc1cc(C)nc(SCc2nnc(SCC(=O)Nc3ccc(C)c(C)c3)o2)n1
4.7,x,x,x,i,x,17,COc1cccc(C(c2nnnn2C2CCCCC2)N2CCN(C/C=C/c3ccccc3)CC2)c1OC (stereo not drawn)
-1.2,-0.8,0.66,4.4,i,x,-3.8,CCOc1ncccc1C(=O)NCCc1ccc(S(N)(=O)=O)cc1
-0.5,3.5,0.68,2.6,i,u,-0.4,COc1ccc(N2CCN(C(C)C(=O)Nc3nnc(C)s3)CC2)cc1 (stereo not drawn)
-0.9,0.2,0.7,-1.7,x,11%,x,COc1ccccc1C(CC(N)=O)c1ccco1 (stereo not drawn)
2.5,x,x,x,i,x,-0.8&-2.0,COc1ccccc1CN(C)C[C@@H]1OCc2cnnn2CCCC(=O)N([C@@H](C)CO)C[C@H]1C
-2.7,9.5,0.72,2.7,x,-2%&22%,x,Cc1ccc(S(=O)(=O)N2CCc3ccccc3C2CN2C(=O)c3ccccc3C2=O)cc1 (stereo not drawn)
-7.2,-0.4,0.71,0.8,x,18%,x,Cc1cc2c(cc1C)CSC(c1ccc3ccccc3c1O)SC2

Single records, from the list above:
Results for COc1ccccc1CN(C)C[C@@H]1OCc2cnnn2CCCC(=O)N([C@@H](C)CO)C[C@H]1C : HNF4A DNA FP: 2.5; RanGTP-Imp inh: x; Ecoli growth: x; UCH37 inh: x; FGF22 binding: i; Vif A3G: x; MLL AF4-AF9 inh: -0.8&-2.0
Results for CC1CCCCN1CC(=O)c1c[nH]c2ccccc12 (stereo not drawn) : HNF4A DNA FP: 2.4; RanGTP-Imp inh: 0.2; Ecoli growth: 0.68; UCH37 inh: 5.0; FGF22 binding: i; Vif A3G: -2%; MLL AF4-AF9 inh: -0.9

New compounds follow.
HNF4A DNA FP,RanGTP-Imp inh,Ecoli growth,UCH37 inh,FGF22 binding,Vif A3G,MLL AF4-AF9 inh,compound
-0.3,-0.5,x,x,i,1%,0.2,Cc1nonc1C(=O)N/N=C/c1ccc([N+](=O)[O-])o1
1.9,-8.0,x,x,i,-1%,5.8,C/C(CCC(C)C)=N\NC(=S)Nc1cc(S(=O)(=O)N2CCOCC2)ccc1N1CCOCC1
3.7,1.9,0.66,2.8,i,-4%,-10,Cc1ccc(S(=O)(=O)Nc2cccc(C(=O)N3CCOCC3)c2)cc1
2.0,3.0,0.67,-0.1,i,-6%,3.0,Cn1cc(CC(=O)NCCN2CCOCC2)c2ccccc21
0.4,1.6,0.75,2.0,x,17%,-0.3,Cc1ccccc1C1CC(c2ccccc2)Nc2ncnn21 (stereo not drawn)
-3.7,10,0.72,-0.3,x,4%,x,CCOc1ccc(N2C(=O)c3cccnc3C2=O)cc1
-13,-1.5,0.68,0.5,i,2%,-55,Cc1ccc2c(c1)c(CC(=O)Nc1ccc(F)cc1)c(C(=O)O)n2C
0.8,x,x,x,i,x,3.3&-2.3&1.0,C[C@@H]1CN([C@@H](C)CO)C(=O)CCCn2nncc2CO[C@H]1CN(C)C(=O)Nc1cccc2ccccc12
0.9,x,0.69,-2.9,i,x,0.2,CC(=O)c1c(C)[nH]c(C(=O)CN2CCN(S(=O)(=O)c3ccccc3F)CC2)c1C
5.4,4.6,0.71,-1.2,x,-7%,x,O=C(COC(=O)c1n[nH]c2ccccc12)NC(=O)NC1CCCCC1
-0.7,0.8,0.74,-145,x,25%,x,CC(=O)c1ccc2c3c(cccc13)CC2
-0.6,-3.9,0.7,-1.9,i,x,-3.9,O=C(NCc1ccco1)C1CCCCC1
-1.8,-0.4,0.67,3.7,i,x,-3.7,CC(=O)NS(=O)(=O)c1ccc(NC(=O)c2cccc3ccccc23)cc1
-5.0,2.5,0.65,-2.2,i,11%,-0.6,Cc1ccc(C(=O)CSc2nnc(-c3ccco3)n2C)cc1
5.5,-1.0,0.7,1.5,i,-14%,-7.6,COc1ccc(C(=O)OCC(=O)c2ccc(Br)s2)c(OC)c1
-1.1,-1.5,0.68,0.0,i,10%,-1.9,NNC(=O)c1cccnc1Oc1ccccc1
0.7,2.3,0.73,4.6,x,-1%,x,CCC12CN(S(=O)(=O)c3ccc(C)cc3)CC(CC)(CN(S(=O)(=O)c3ccc(C)cc3)C1)C2=O
-0.7,1.3,0.69,0.7,i,-10%,-0.6,O=C(CSc1nnc(-c2ccncc2)o1)c1cccc([N+](=O)[O-])c1
4.2,0.3,0.67,2.5,i,-12%,-1.2,O=C(COC(=O)CNC(=O)c1ccccc1F)Nc1ccc2c(c1)OCCO2
-6.7,2.2,0.65,-4.2,i,x,-2.3,CC1CCCCN1C(=O)Cn1cnc2cc([N+](=O)[O-])ccc2c1=O (stereo not drawn)
2.1,-0.3,0.69,-1.8,i,x,-8.7,C=CCn1c(-c2cccc(OC)c2OC)n[nH]c1=S
1.5,0.6,x,x,i,x,-12,C/C(=N\N=C1\NC(=O)C(CC(=O)O)S1)c1ccccn1 (stereo not drawn)
-2.3,-2.6,0.76,0.0,x,1%,x,COc1ccccc1CNC(=O)COC(=O)c1cnccn1
2.6,0.3,0.76,-1.8,x,0%,x,O=C1CCCc2c1[nH]c1c(Br)cccc21
-0.7,-3.5,0.7,3.2,x,u,x,O=C(Cn1c(=O)sc2ccccc21)NCCOc1ccccc1F
4.5,-1.9,0.66,-8.3,i,-13%,1.2,CCC(=O)Nc1c(-c2ccccc2Cl)c(=O)c2ccccc2n1CC
-1.5,-2.8,0.78,2.5,i,12%,1.2,CCCC[C@@H]1CNC(=S)N1CCC12CC3CC(CC(C3)C1)C2
6.5,x,x,x,i,x,-5.8,COC(=O)[C@@]12C[C@@H](CC(=O)N3CCN(C(=O)C4CC4)CC3)C(=O)N(Cc3ccccc3)C1=CCC(C)(C)C2
-0.7,5.8,0.7,3.0,i,-12%,5.0,COc1ccc2[nH]cc(S(=O)(=O)c3ccc(F)cc3)c(=O)c2c1
1.9,-2.2,0.69,4.7,x,0%,x,CC1=C(C(=O)OC(C)C)C(c2ccc(Br)s2)NC(=O)N1 (stereo not drawn)

Screening results: PubChem, several laboratories

A portion of the library; count on the stated rates, not on these rows.
